Calb biofilm kill = clotrimazole potentiators killing C. albicans biofilm, primary screen, 4-compound mixtures; C. albicans biofilm persisters + clotrimazole, fluorescence viability; primary screen in compound mixtures of four per well; inhibition, % at 7.6 µM; 0.02% of 120,000 active; AID 1242, 2008;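 active = inhibition above 30.3% in the primary screen of four-compound pools, then above 30% when the compound was retested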;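 note: compounds exposed to preformed 24 h biofilms for 48 h; the number belongs to the whole pool; some results filed as inactive read as strong as hits; inactives centre near 12; 0% = biofilm with clotrimazole alone and 100% = kill control; retested singly at about 60 µM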
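Incubation: 24 h biofilm formation, then 48 h compound exposure, 37 °C | Material: C. albicans biofilms | Buffer or medium: RPMI/MOPS medium, pH 7.0 | Measured by: 2-h Alamar Blue fluorescence, 535/590 nm excitation/emission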
The depositor's hits bear a star.

SMILES | Calb biofilm kill
CN(C)CCNc1ncnc2c1sc1nc(N3CCCC3)c3c(c12)CC(C)(C)OC3 | 11
COc1ccc(NC(=O)c2sc3nc(C)nc(N4CCOCC4)c3c2C)c(OC)c1 | 17
CCCCCCCCS(=O)C1CS(=O)(=O)CC1O (stereo not given) | 29
CC(Nc1ccccc1CO)C(=O)Nc1cccc(Cl)c1Cl (stereo not given) | 9
COc1cccc(N(C(=O)Cn2nnc(-c3ccc(Cl)cc3)n2)C(C(=O)NCC2CCCO2)c2ccc(C)cc2)c1 (stereo not given) | 26
Cc1ccc(-n2c(C)cc(/C=C3/SC(=O)N(CC(=O)N4CCOCC4)C3=O)c2C)nc1 | 11
COC(=O)c1ccccc1-c1ccc(/C=N/NC(=O)c2cc3ccccc3o2)o1 | 11
CC1(C)Cc2c(sc3nc(C4CC4)n(N)c(=O)c23)CO1 | 8
O=C(O)C1=NN(c2ccccc2)C(=O)C1 | 22
CCN(CC)S(=O)(=O)c1cc(C(=O)Nc2cccnc2Cl)ccc1Cl | 7
Cc1cc(C)cc(NC(=O)Cn2nnc3ccccc3c2=O)c1 | 14
COCc1c(C(=O)OC/C(O)=C(\C#N)c2nc3ccccc3[nH]2)oc2ccccc12 | 20
CCN(CC)CCCN1C=C2C(=O)C(C)(OC(=O)CCc3ccccc3)C(=O)C=C2C=C1c1ccc(C#N)cc1 (stereo not given) | 9
CCCCSc1nc(C(=O)O)cc(=O)[nH]1 | 15
CCCCN(CC)CCCNC(=S)Nc1ccc2nc3n(c(=O)c2c1)CCCCC3 | 4
CCSc1nnc(NC(=O)CN2C(=O)C3CC=CCC3C2=O)s1 (stereo not given) | 24
S=c1[nH]nc(C2CC2)n1Cc1ccccc1 | 11
Cc1ccc(S(=O)(=O)Nc2cccnc2Oc2ccc(Cl)cc2)cc1 | 16
Cc1cccc[n+]1CC(=O)/C=C1\N(C)c2ccccc2C1(C)C | 32
CCOC(=O)C1=C(C)Nc2ccccc2N=C1NC(=O)Cc1ccc(Br)cc1 | 8
COc1cc(Br)c(C2C(C#N)=C(N)Oc3n[nH]c(-c4cccnc4)c32)cc1OC (stereo not given) | 10
O=C1CNC(=S)N1CCCn1ccnc1 | 6
COc1ccc(CCC(=O)Nc2c(C)n(C)n(-c3ccccc3)c2=O)cc1 | 8
CCc1ccc(-c2nc(CS(=O)CC(=O)O)c(C)o2)cc1 (stereo not given) | 19
CC(C)NC(=S)NC(=O)/C=C/c1ccc(F)cc1 | 6
CNc1ccccc1C(C)(C)c1cc(-c2cccc([N+](=O)[O-])c2)no1 | 9
COc1ccc(/C=C2\SC(=O)N=C2N)cc1 | 15
S=c1[nH]cnc2sc(-c3ccccc3)cc12 | 18
O=C(NCC1CCCN(Cc2cccc(C(F)(F)F)c2)C1)c1ccc(F)cc1 (stereo not given) | 12
O=C(COC(=O)c1cnccn1)NCc1ccc(Cl)cc1 | 2
CN1C(=S)SC(N2OC3C(=O)N(c4ccccc4)C(=O)C3C2c2ccccc2)C1(C)C (stereo not given) | 13
CC(C)COP(=O)(CNC(=O)CN1C(=O)c2ccccc2S1(=O)=O)OCC(C)C | 14
COc1ccc(Nc2ccccc2C(=O)O)cc1 | 9
CC(=C\C(=O)O)/C(=C\c1cccc2ccccc12)C(=O)O | 9
COc1ccc(/C=C(\NC(=O)c2ccccc2)C(=O)N/N=C/c2cccnc2)cc1 | 0
COc1cc(NC(=O)/C=C/c2ccccc2[N+](=O)[O-])cc(OC)c1 | 16
CCOc1ccc(C(=O)Nc2sc3c(c2C(=O)OC)CC(C)(C)NC3(C)C)cc1 | 15
CCN(CC)Cc1cc2[nH]c3c4ccc(Cl)cc4ncc3c2cc1OC | 16
COc1ccc(C(C)=O)cc1CSCC(=O)O | 13
COc1ccc(C(=O)N/N=C(/C)c2cccc(NC(=O)C(F)(F)F)c2)cc1 | 13
COc1cc(/C=C/C(=O)Nc2ccc3nc4n(c(=O)c3c2)CCCC4)cc(OC)c1OC | 4
CCCOC1CCCN(Cc2cn(C)nc2-c2ccccc2F)C1 (stereo not given) | 3
COCCNc1nc(-c2cc(C)c(C)cc2C)cs1 | 13
CCN(CC)C(=O)Cn1c(=O)c2ccccc2n2c(=S)sc(-c3cccc(C)c3)c12 | 7
COc1cccc(NC(=S)NCCc2ccccn2)c1 | 5
COc1ccc(C2/C=C\CN(C(=O)C3CCCCC3)CC(=O)N2Cc2ccc(F)cc2)cc1 (stereo not given) | 14
O=C(NCc1ccccc1C(F)(F)F)C1CC(c2ccccc2C(F)(F)F)=NO1 (stereo not given) | 11
O=S(=O)(c1ccc2nc(-c3ccccc3)[nH]c2c1)N1CCN(c2ccc(Cl)cc2)CC1 | -2
C=CCc1ccccc1OCCNCCCOC | -2
C=C1C(=O)O[C@H]2C1CC[C@@](C)(O)C13C=CC(C)(C21)C1(C3)C(=O)O[C@@H]2C3C(C)=CCC3[C@](C)(O)C[C@H](OC(C)=O)C21 (stereo not given in full) | 16
CCOCCCNC(=O)NC(=O)CN1CCN(S(=O)(=O)c2ccc3c(c2)OCCO3)CC1 | 12
CC(C)CN(C(=O)CN1CCC(C)CC1)c1c(N)n(CC(C)C)c(=O)[nH]c1=O | -3
CN1\C(=C/C=C/C=C/C=[N+](C)C)C(C)(C)c2ccccc21 | 23
CCNC(=O)N1c2ccccc2Sc2ccccc21 | 13
COc1ccc(OC)c(NC(=O)CCN2CCCCCC2)c1 | 11
COc1ccc(/C=C/c2ccc(=O)n(Cc3ccccc3)n2)cc1 | -6
CCCNC(=O)C(=O)NCC1CCCN1CC (stereo not given) | 12
O=C(CN1CCOCC1)N1CCN(c2ccc([N+](=O)[O-])cc2)CC1 | 7
O=c1cc(-c2ccccc2)nc(/C=C/c2ccccc2)[nH]1 | 22
Cc1nn2c3ccccc3n(CCN3CCCCC3)c2nc1=O | 5

Structural class: the compounds so far containing a thiophene ring, fused or not
SMILES | Calb biofilm kill
CN(C)CCNc1ncnc2c1sc1nc(N3CCCC3)c3c(c12)CC(C)(C)OC3 | 11
COc1ccc(NC(=O)c2sc3nc(C)nc(N4CCOCC4)c3c2C)c(OC)c1 | 17
CC1(C)Cc2c(sc3nc(C4CC4)n(N)c(=O)c23)CO1 | 8
S=c1[nH]cnc2sc(-c3ccccc3)cc12 | 18
CCOc1ccc(C(=O)Nc2sc3c(c2C(=O)OC)CC(C)(C)NC3(C)C)cc1 | 15

The list continues.
SMILES | Calb biofilm kill
N#Cc1ccsc1NC(=O)CN1CCN(S(=O)(=O)c2cc(Cl)ccc2Cl)CC1 | 15
O=[N+]([O-])c1ccc(S(=O)(=O)N/N=C/c2cccs2)cc1 | 11
COc1ccc(CN2CCN(C3CCSCC3)CC2CCO)c(C)c1C (stereo not given) | 30
O=C(/C=C/Nc1ccc(S(=O)(=O)Nc2cnc3ccccc3n2)cc1)c1ccccc1 | 32
O=C(Nc1ccccc1Oc1ccccc1)C1CCCC1 | 15
O=C(N/N=C/c1cccnc1)NC12CC3CC(CC(C3)C1)C2 | 20
COC(=O)c1cccc(NC(=O)CCNC(=O)c2ccc([N+](=O)[O-])cc2)c1 | 6
Cc1ccccc1N1CCN(c2ccc(NC(=O)C3CCCCC3C(=O)O)cc2)CC1 (stereo not given) | 18
CCn1c(=O)c([N+](=O)[O-])c(NC2CCS(=O)(=O)C2)c2ccccc21 (stereo not given) | 19
CC(C(=O)Nc1ccc(OCc2ccccc2)cc1)N1CCCC1 (stereo not given) | 12
CCn1c(=O)c([N+](=O)[O-])c(NCc2ccco2)c2ccccc21 | 19
NC(=O)CSc1nnc(-c2cc(-c3ccc(Cl)cc3)nc3ccccc23)o1 | -10
C=CCSC(=S)NC1CCS(=O)(=O)C1 (stereo not given) | 1
Cc1cc(C)cc(C(=O)NN2CCOCC2)c1 | 14
CCCCn1c(NCc2ccncc2)nc2ccccc21 | 16
N=C1/C(=C\c2ccc(OCc3ccccc3)cc2)C(=O)N=C2SC(N3CCCC3)=NN12 | 15
O=C(CN(Cc1cccs1)C(=O)c1csnn1)NC1CCCC1 | 4
COC(=O)c1c(Cl)c2n3ccccc3c(C)c(-c3ccccc3)c-2c1C(=O)OC | 17
CCNc1nc(Oc2ccc(F)cc2)cc(C(F)(F)F)n1 | 16
Cn1c(Cn2cnc([N+](=O)[O-])n2)nnc1SCC(=O)Nc1ccc(Br)cc1 | 3

Brought forward from above: 3 entries, then new ones.
SMILES | Calb biofilm kill
COC(=O)c1c(Cl)c2n3ccccc3c(C)c(-c3ccccc3)c-2c1C(=O)OC | 17
CCNc1nc(Oc2ccc(F)cc2)cc(C(F)(F)F)n1 | 16
Cn1c(Cn2cnc([N+](=O)[O-])n2)nnc1SCC(=O)Nc1ccc(Br)cc1 | 3
Cc1ccc(OCC(=O)c2cc(C)n(Cc3cccs3)c2C)c([N+](=O)[O-])n1 | -35
CC(=O)N(Cc1ccccc1)Cc1cn(CCC#N)nc1-c1cccc([N+](=O)[O-])c1 | 11
CCCc1nc2ccc(NC(=O)c3ccco3)cc2c(=O)n1Cc1ccccc1Cl | 4
CCOC(=O)C1=C(C)N(C)C(C)=C(C(=O)OCC)C1c1ccccc1 | 15
Cc1cc(CNC(=O)CCc2nnc(CCCCc3ccccc3)o2)nn1C | 15
COc1cc([N+](=O)[O-])c(OC)cc1SCc1n[nH]c(=S)n1-c1ccc(F)cc1 | 18
Cc1ccccc1C(=O)Nc1nc2c(C)csc2c(=O)s1 | 22
OCC(Cc1ccccc1)NCc1ccccc1C(F)(F)F (stereo not given) | 15
O=C(COc1ccc(-c2ccccc2)cc1)NN=C1CCCC1 | 14
CN(c1ccccc1)S(=O)(=O)c1ccc(NC(=O)c2cccs2)cc1 | 11
CCOC(=O)/C(N=Nc1c(C)n(C)n(-c2ccccc2)c1=O)=C(\C)O | 22
O=C(OCc1nc2ccccc2s1)c1ccc(Br)o1 | 14
CCOC(=O)c1ccc(C(=O)OCC)c(NC(=S)Nc2ccc([N+](=O)[O-])cc2OC)c1 | 4
Cc1ccccc1OCC(=O)N/N=C/c1ccc2c(c1)OCCO2 | 16
CC(C)c1nc2ccc(NC(=O)C3CCCCC3)cc2[nH]1 | 16
Cc1ccc(-c2csc3nc4c5ccccc5c(NCCCN(C)C)nn4c(=O)c23)cc1 | 17
O=C(CSc1nc2ccccc2c(=O)n1Cc1ccc(F)cc1)NCc1cccs1 | 9
C=C(C)C(=O)Nc1ccc2c(c1)OCCOCCOCCO2 | 23
CN(C)C=NC(=O)c1cc(C(=O)c2ccc(C(C)(C)C)cc2)c[nH]1 | 18
COc1ccc(S(=O)(=O)N2CCOCC2)cc1NC(=O)CO/N=C/c1ccccc1OC(F)F | 7

In a second layout: results already given
Compound,Calb biofilm kill
O=C(OCc1nc2ccccc2s1)c1ccc(Br)o1,14
CCOC(=O)c1ccc(C(=O)OCC)c(NC(=S)Nc2ccc([N+](=O)[O-])cc2OC)c1,4

(further entries)
SMILES | Calb biofilm kill
O=[N+]([O-])c1ccc(OCc2cn([C@@H](CO)c3ccccc3)nn2)c(Br)c1 | 17
CC(C)=C1C2C=CC1C1C(=O)N(c3ccc4c(c3)OCO4)C(=O)C21 (stereo not given) | 5
Cc1[nH]n(-c2ccc([N+](=O)[O-])cc2)c(=O)c1C=NCC1CCCO1 (stereo not given) | 5
O=C(O)COc1ccc2c(c1)O/C(=C\c1cccs1)C2=O | 25
NC(N)=N/N=C/c1cc([N+](=O)[O-])ccc1O | 9
C/C(=N/NC(=O)c1cc(-c2cccc([N+](=O)[O-])c2)n[nH]1)c1ccc(Cl)cc1 | 20
O=C(NCc1ccco1)c1csc2c1CCCC2 | 28
COc1cccc(N/C(C)=C/C(=O)c2ccc(Br)cc2)c1 | 14
COc1cc(NC(=O)c2csc(N)n2)cc(C(=O)Nc2cccc(C(F)(F)F)c2)c1 | 13
Cc1ccc(S(=O)(=O)CC(C)N2CCN(C3CCCCC3)CC2)cc1 (stereo not given) | 8
Cc1ccc2nc(SCc3nc4cc(Cl)ccc4c(=O)[nH]3)[nH]c2c1 | 12
Cc1ccc(C2=NN(CCC(=O)NCCC(C)C)C(=O)CC2)cc1 | 17
CCc1ccc(N2CN(Cc3cccnc3)CNC2=S)cc1 | 24
COc1ccc2cc(C(=O)C3CCCN(C(=O)Cc4c(C)noc4C)C3)ccc2c1 (stereo not given) | 12
COc1ccccc1NC(=O)c1ccccc1S(=O)(=O)c1ccccc1[N+](=O)[O-] | 22
CN(C(=O)COC(=O)c1ccc2ccccc2n1)C1CCS(=O)(=O)C1 (stereo not given) | 9
CCN(CC)S(=O)(=O)c1cc(NC(=O)C(C)Nc2ccccc2N2CCOCC2)ccc1C (stereo not given) | 8
COc1ccc(OCCC(=O)OCC(=O)c2ccc[nH]2)cc1 | 4
CCOC(=O)c1[nH]c(=O)[nH]c1CN(Cc1ccco1)Cc1[nH]c(=O)[nH]c1C(=O)OCC | 22
Cc1c(C)[n+](=O)c(-c2ccc(Br)cc2)c(C)n1[O-] | 7
COc1ccc(C(=O)N2CCOC2CNC(=O)C(=O)NCc2ccc(Cl)cc2)cc1 (stereo not given) | 13

5 of these compounds, set out differently:
molecule,Calb biofilm kill
COc1ccc(CN2CCN(C3CCSCC3)CC2CCO)c(C)c1C (stereo not given),30
CCOC(=O)c1[nH]c(=O)[nH]c1CN(Cc1ccco1)Cc1[nH]c(=O)[nH]c1C(=O)OCC,22
Cc1cccc[n+]1CC(=O)/C=C1\N(C)c2ccccc2C1(C)C,32
CCN(CC)CCCN1C=C2C(=O)C(C)(OC(=O)CCc3ccccc3)C(=O)C=C2C=C1c1ccc(C#N)cc1 (stereo not given),9
COc1cc(/C=C/C(=O)Nc2ccc3nc4n(c(=O)c3c2)CCCC4)cc(OC)c1OC,4

Compound activity deposited in PubChem by PCMD.

Only part of the results is shown; the hit share may differ from the screen's.
